TRPML1 ag: agonists of human TRPML1 channel. hit rate 0.12% among 410,000. TRPML1-expressing cells, Ca2+ dye fluorescence, FDSS; host cell line not named in the record; reference of the full effect not given here. activation, % (test concentration not listed). AID 624414. Q9GZU1; in the data active = activation above about 50%; inconclusive = about 30% to 50%; inactive = below about 30%; further: 0% is about no effect; the text of the record puts the active cut at 80%
Target sequence (Q9GZU1 whole entry, looked up): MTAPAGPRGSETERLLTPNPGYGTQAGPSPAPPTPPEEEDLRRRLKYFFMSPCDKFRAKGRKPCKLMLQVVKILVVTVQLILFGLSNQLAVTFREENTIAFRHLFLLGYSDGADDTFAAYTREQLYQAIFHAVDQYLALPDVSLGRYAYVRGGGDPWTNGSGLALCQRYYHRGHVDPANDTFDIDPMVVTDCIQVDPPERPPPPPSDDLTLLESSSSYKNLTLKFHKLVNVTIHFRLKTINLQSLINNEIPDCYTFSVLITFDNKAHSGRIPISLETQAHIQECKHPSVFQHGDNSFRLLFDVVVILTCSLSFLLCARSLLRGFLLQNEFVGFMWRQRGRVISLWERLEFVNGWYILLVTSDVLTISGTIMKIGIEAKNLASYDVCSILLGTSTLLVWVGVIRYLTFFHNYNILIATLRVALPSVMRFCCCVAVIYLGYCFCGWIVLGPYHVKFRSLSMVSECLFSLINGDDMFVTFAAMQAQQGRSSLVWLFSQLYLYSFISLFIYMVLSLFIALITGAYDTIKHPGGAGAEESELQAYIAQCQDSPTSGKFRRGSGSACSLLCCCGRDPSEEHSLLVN
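Cells: TRPML1-DL, 1X Tet inducer, ~16 h at 37 degrees C/5% CO2. Dye: ABD Ca8 no-wash + quencher, 45-90 min RT. Read: 10 s baseline, compound add, 110 s agonist phase; 54-4 EC80 (4uM final), 110 s antagonist phase.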
Menin-MLL FL inh: menin-MLL binding inhibition, fluorescein peptide | Fluorescence polarization, fluorescein-MLL peptide displacement from menin | FP activity change, % at 61.4 µM | 290,000 tested, under 10 active | AID 1766; inconclusive = falling polarisation curve, or a change in total fluorescence; inactive = total fluorescence flat and polarisation flat or rising; no compound was filed as active; the % refers to the polarisation; negative = inhibition;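 further: % of control where 0% means no effect; inhibitors lower the polarisation; unlabelled MLL peptide was the positive control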
ClpP mod: qHTS Assay for Activators of ClpP; ATP-dependent Clp protease proteolytic subunit (Bacillus subtilis (strain 168)), P80244; purified B. subtilis ClpP, FRET peptide cleavage, 20 min; Potency, µM (titrated, usually from 57.5 µM), inactives show at the highest dose activity change, negative = active; hit rate 1.9% among 340,000; AID 651965, 2013; active = well fitted falling curve with a large enough effect; inconclusive = small, poorly fitted or top-dose-only effect; inactive = no such curve, though single readings can be large or run the other way; further: potency means the concentration at half of the fitted maximal effect; the source files actives as falling curves though it sought activators and does not explain the sign; nearly all actives have a fitted effect of over 65% in size; many hits overshoot -100%
Target sequence (P80244 whole entry, looked up): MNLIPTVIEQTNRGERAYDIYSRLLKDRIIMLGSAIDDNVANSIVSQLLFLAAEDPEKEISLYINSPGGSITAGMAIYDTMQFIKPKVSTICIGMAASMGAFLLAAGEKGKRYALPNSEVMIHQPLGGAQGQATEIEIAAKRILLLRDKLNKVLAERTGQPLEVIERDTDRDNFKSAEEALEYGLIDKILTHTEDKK
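FRET quenching reversal measured ClpP activation: 10 microg/mL B. subtilis ClpP at pH 8 with the FRET-FV decapeptide, read at 430 nm after 320 nm excitation. The 20-min minus 0-min signal was scaled between DMSO/no-enzyme wells and ADEP (5.8 microM final).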
gsp ag: agonists of gsp mutant (McCune-Albright syndrome) | gsp mutant cells, cAMP HTRF, 30 min; control for the full effect not named in the record | Potency, µM (series often up to 76.9 µM), inactives show top-dose activation (cAMP increase), actives largely listed as activators | hit rate 0.13% among 340,000; active = well fitted activation curve with a large enough effect; inconclusive = small, poorly fitted or top-dose-only effect, or another doubt; inactive = no such curve, though single readings can be large or run the other way; cell line not stated here;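 further: phosphodiesterase inhibitor Ro 20-1724 added with compounds to block cAMP breakdown; potency means the concentration at half of the fitted maximal effect; nearly all actives have a fitted effect of over 60% in size; about a fifth of the inactives were tested at one dose only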
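Cells in DMEM/10% FBS with G418 were pretreated with compounds in DMSO plus […] (300 uM stock) for 30 min at 37C. cAMP was measured by HTRF (cAMP-d2 plus anti-cAMP antibody-K) after 30 min at room temperature.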
gsp antag: gsp mutant antagonism; gsp-mutant cells, cAMP HTRF, 30 min; control for the full effect not named in the record; Potency, µM (titrated, usually from 76.9 µM), for the others: at the top dose activity change, negative = inhibition, hits mostly inhibitors; hit rate 0.4% among 340,000; active = falling curve of any shape with a large fitted effect; inconclusive = falling curve, mostly with a smaller effect; inactive = flat or rising curve; cell line not stated here;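 further: intracellular cAMP measured with PDE inhibitor Ro 20-1724 present during compound exposure; potency means the concentration at half of the fitted maximal effect; on the % scale 0 is the no-effect control and ±100 the full control effect; nearly all actives have a fitted effect of over 65% in size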
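G418-selected cells were plated in DMEM/10% FBS for 16-24 h at 37C, then treated with compounds plus the PDE inhibitor […] (300 uM solution added) for 30 min at 37C. Intracellular cAMP was measured by HTRF after 30 min lysis at room temperature.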
TRPML1 inh: inhibitors of human TRPML1 channel; Q9GZU1; TRPML1-inducible cells, Ca2+ dye fluorescence, FDSS; stronger effect = lower value; inhibition of EC80 agonist-evoked calcium signal; activity change, negative = inhibition, % (test concentration not listed); hit rate 0.02% among 390,000; AID 624415; in the data active means activity change below about -50%; inconclusive means about -30% to -50%; inactive means above about -30%;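 further: stimulus is agonist 54-4 at its EC80 concentration; on the % scale 0 is the no-effect control and ±100 the full control effect; compound concentration not given in the record; the text of the record puts the active cut at -80%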
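TRPML1-DL cells, Tet-induced overnight (~16 h, 37 °C) at 1,500 cells/well, were loaded with Ca8 no-wash dye plus quencher for 45-90 min at room temperature. Compounds were pinned during FDSS kinetic reading; agonist 54-4 at EC80 (4 uM final) then added.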
Numbers without * were called inactive; ? = inconclusive; / = no result given; & = joins results of further samples; [ ] = another dose, or the depositor's remark.

[1] CN(C)/C=C(\C(=O)c1ccc(F)cc1F)c1nnnn1-c1ccccc1
[2] N#C/C(=N/Nc1ccccc1[N+](=O)[O-])C(N)=S
[3] Cc1ccc(C)c(N(C(=O)c2csnn2)C(C(=O)NC2CCCCC2)c2cccnc2)c1 (stereo not drawn)
[4] Cc1cc(C(=O)N/N=C/c2cccc(OC(=O)c3ccco3)c2)n[nH]1
[5] Cc1ccc2c(CC(=O)Nc3ccc(S(=O)(=O)N4CCCCC4C)cc3)coc2c1C (stereo not drawn)
[6] CCOC(=O)N1CCN(C(=O)CCS(=O)(=O)c2ccc3c(c2)CCN3C(=O)CC)CC1
[7] COc1cc(C(CC(=O)Nc2ccc(C)c(F)c2)N2Cc3ccccc3C2=O)cc(OC)c1OC (stereo not drawn)
[8] Cc1cc(C)nc(SCc2cnc(C)nc2N)n1
assay / entry | 1 | 2 | 3 | 4 | 5 | 6 | 7 | 8
TRPML1 ag | 0.1 | 0.0 | 1.3 | -1.1 | 1.6 | -1.1 | 0.3 | -0.7
Menin-MLL FL inh | -0.3 | -2.1 | 0.2 | 5.0 | / | ? | / | -4.5
ClpP mod | -7.4% | / | / | -0.9% | -5.2% | 1.5% | 4.8% | /
gsp ag | -2% | -14% | ? | 35% | / | ? | / | 15%[15.4 µM]
gsp antag | 1% | -22% | -4% | 0% | / | -10% | / | 0%
TRPML1 inh | -1 | 10 | -6 | 1 | 14 | 1 | 44 | -3

[9] CN(CCc1ccccc1)C(=O)c1ccc(NC(=O)Cc2ccc(NC(=O)C3CCN(C(=O)C4CC4)CC3)cc2)cc1
[10] CCOC(=O)COn1c2c(c3c4no[n+]([O-])c4ccc31)CCCC2
[11] COc1ccc(CNC(=O)CN2CCN(c3ccccc3O)CC2)cc1OC
[12] COCCCNCC1C(Oc2ccc(Cl)cc2)C(=O)N1c1ccccc1C (stereo not drawn)
[13] CCOC(=O)c1nnn(-c2nonc2N)c1CN1CCc2ccccc2C1
[14] COc1ccc(-c2cc(C(F)(F)F)nc(SCC(=O)N(C)Cc3cn(C)nc3C)n2)cc1OC
[15] C/C(CC(=O)NCc1ccco1)=N\NC(=O)COc1ccc(Cl)cc1Cl
[16] Cc1ccccc1CNC(=O)c1ccc2[nH]c(C)c(C)c2c1
assay / entry | 9 | 10 | 11 | 12 | 13 | 14 | 15 | 16
TRPML1 ag | -0.1 | -0.2 | 0.2 | 0.0 | 0.6 | -1.5 | -1.1 | 1.7
Menin-MLL FL inh | / | 3.5 | 3.1 | 1.4 | 3.7 | 3.5 | 3.7 | /
ClpP mod | -0.1% | -2.2% | -3.9% | -13% | -6.1% | ? | -1.2% | -15%
gsp ag | / | 9% | 5% | -6%[15.4 µM] | -30%[inhibitor] | -5% | ? | /
gsp antag | 17% | 2% | 8% | 7% | 1% | 5% | 3% | /
TRPML1 inh | -3 | 21 | 25 | 3 | 6 | -10 | -2 | 8

[17] COc1ccc(N=C2S/C(=C\c3ccc(OC(C)C(=O)O)c(OC)c3)C(=O)N2CCc2c[nH]c3ccccc23)cc1 (stereo not drawn)
[18] Fc1ccc(CNc2ncnc3onc(-c4ccc(F)cc4)c23)cc1
[19] Cc1nn(-c2ccccc2)c2c1/C(=N/O)CC(C)(C)C2
[20] O=[N+]([O-])c1ccccc1S(=O)(=O)Nc1ccc(-c2ccc(N3CCCC3)nn2)cc1
[21] COc1ccc(CNC(=O)c2ccc3c(c2)N(C)C(=O)C2CCCCN32)cc1OC (stereo not drawn)
[22] CC(=Nc1ccccc1)C1=C(O)C(CC(C)C)NC1=O (stereo not drawn)
[23] Cc1[nH]n(C(N)=S)c(=O)c1C(c1ccccc1)C(C#N)C#N (stereo not drawn)
[24] Cc1noc(C)c1S(=O)(=O)Nc1cccc(C(F)(F)F)c1
assay / entry | 17 | 18 | 19 | 20 | 21 | 22 | 23 | 24
TRPML1 ag | 0.6 | 1.1 | 0.8 | 0.6 | 0.2 | 0.9 | -0.1 | -0.4
Menin-MLL FL inh | 6.2 | / | 0.9 | / | / | / | 1.0 | 0.5
ClpP mod | / | 5.1% | -2.7% | 1.5% | -6.0% | -1.1% | -0.3% | 0.6%
gsp ag | -25% | / | -10% | 9%[15.4 µM] | / | ? | -8% | -1%
gsp antag | 35µM* | / | -9% | -26% | / | 5% | 0% | 2%
TRPML1 inh | -9 | 46 | 16 | -8 | 9 | 0 | -3 | -9

[25] O=C(c1ccco1)N(Cc1cccc(Br)c1)C1CCS(=O)(=O)C1 (stereo not drawn)
[26] O=C(Nc1ccc(F)cc1)c1oc2ccccc2c1NC(=O)C1CC1
[27] COc1ccc(CCc2nc(C)ccc2O)cc1
[28] O=C(NCCC1CCCCN1S(=O)(=O)c1ccccc1)C(=O)NCc1cccnc1 (stereo not drawn)
[29] CCCN(Cc1nc(-c2ccc(Cl)cc2)no1)CC1CCCO1 (stereo not drawn)
[30] COc1ccc([N+](=O)[O-])cc1NC(=O)C1CCCNC1=O (stereo not drawn)
[31] CNc1nc(-c2ccccc2)cc(C(F)(F)F)c1C#N
[32] O=C(c1ccc(Cl)cc1)C1CCN(C(=S)Nc2ccccc2)CC1
assay / entry | 25 | 26 | 27 | 28 | 29 | 30 | 31 | 32
TRPML1 ag | 2.1 | 2.1 | -0.6&-0.3 | 0.6 | 0.7 | -1.1 | 0.0 | 0.8
Menin-MLL FL inh | / | / | 0.0&0.8 | / | -2.2 | -5.2 | 13 | /
ClpP mod | -2.1% | -7.1% | ? | -2.3% | / | -0.7% | -6.0% | -3.2%
gsp ag | -44%[inhibitor] | 6% | -7%&5% | 1%[15.4 µM] | 6%[15.4 µM] | -2%[15.4 µM] | -3% | -1%
gsp antag | 10% | -16% | 1%&8% | -1% | 13% | 3% | 1% | -21%
TRPML1 inh | -14 | 9 | 12&1 | -21 | 7 | -11 | 1 | 15

An excerpt from above in order of count of non-hydrogen atoms, high to low:
[32] O=C(c1ccc(Cl)cc1)C1CCN(C(=S)Nc2ccccc2)CC1
[25] O=C(c1ccco1)N(Cc1cccc(Br)c1)C1CCS(=O)(=O)C1 (stereo not drawn)
[27] COc1ccc(CCc2nc(C)ccc2O)cc1
assay / entry | 32 | 25 | 27
TRPML1 ag | 0.8 | 2.1 | -0.6&-0.3
Menin-MLL FL inh | / | / | 0.0&0.8
ClpP mod | -3.2% | -2.1% | ?
gsp ag | -1% | -44%[inhibitor] | -7%&5%
gsp antag | -21% | 10% | 1%&8%
TRPML1 inh | 15 | -14 | 12&1

The list goes on:
[33] CC1CN(S(=O)(=O)c2ccc(NC(=O)CCCN3C(=O)c4ccccc4C3=O)cc2)CC(C)O1 (stereo not drawn)
[34] Cc1ccc(NC(=O)C2CCCC2)c(Br)c1
[35] O=C(O)c1ccccc1NCc1cccnc1
[36] COc1ccccc1CN(C)C(=O)C1COc2ccccc2O1 (stereo not drawn)
[37] CCc1nnc(NC(=O)CSc2nnc(COc3ccccc3C)o2)s1
[38] COc1ccc2c(CC(=O)Nc3nnc(C4CC4)s3)coc2c1
[39] CCOc1ccc(S(=O)(=O)NCC(=O)NC2CCCCC2)cc1
[40] COc1ccc(C)cc1NC(=S)N1CCN(c2ncccn2)CC1
assay / entry | 33 | 34 | 35 | 36 | 37 | 38 | 39 | 40
TRPML1 ag | 1.1 | 1.7 | 2.2 | -0.8 | -0.4 | 0.5 | 1.5 | -0.7
Menin-MLL FL inh | 0.8 | / | / | 4.5 | 4.4 | 4.5 | / | 0.4
ClpP mod | -0.7% | / | 4.4% | -0.4% | -1.4% | -0.4% | 1.0% | /
gsp ag | 22% | 3% | 8% | 0% | -5% | -9% | 28% | 8%[15.4 µM]
gsp antag | -1% | -2% | -1% | -8% | 11% | 1% | 5% | /
TRPML1 inh | -14 | -17 | 14 | 14 | 31 | 4 | -19 | -8

[41] COc1ccc(S(=O)(=O)N2CCC(c3nc4ccccc4s3)CC2)cc1OC
[42] Cc1ccc(NC(=O)[C@H](Cc2ccccc2)N2Cc3ccccc3C2=O)cc1
[43] CCSc1nnc([C@@H](NC(=O)OC(C)(C)C)C(C)C)o1
[44] COc1ccc(S(=O)(=O)N2Cc3ccccc3CC2C(=O)Nc2ccc3c(c2)OCO3)cc1 (stereo not drawn)
[45] O=C(Cc1cccc(F)c1)N1CCCC(CO)(Cc2ccc(F)cc2F)C1 (stereo not drawn)
[46] Cc1ccc(N2CCN(/N=C/c3cccs3)CC2)cc1
[47] COc1ccc(OC)c(CNC(=O)c2ccc3c(c2)c(C)c(C)n3Cc2ccc(Cl)cc2)c1
[48] S=C(Nc1ccccc1Cl)N(CCN1CCCCC1)Cc1ccco1
assay / entry | 41 | 42 | 43 | 44 | 45 | 46 | 47 | 48
TRPML1 ag | 0.4 | 1.2 | -0.2 | -0.4 | / | 1.5 | 0.5 | 5.3
Menin-MLL FL inh | / | / | 0.2 | -1.9 | 2.3 | 0.0 | / | /
ClpP mod | -8.1% | 0.1% | / | -2.9% | -0.4% | -1.3% | 32µM* | -0.4%
gsp ag | / | / | ? | -14% | -5% | -41%[inhibitor] | / | 16%[15.4 µM]
gsp antag | / | / | 13% | ? | -4% | 4% | / | -5%
TRPML1 inh | -5 | -22 | -12 | 10 | / | -9 | 24 | 25

Among those listed so far, these have bromine.
[25] O=C(c1ccco1)N(Cc1cccc(Br)c1)C1CCS(=O)(=O)C1 (stereo not drawn)
[34] Cc1ccc(NC(=O)C2CCCC2)c(Br)c1
assay / entry | 25 | 34
TRPML1 ag | 2.1 | 1.7
Menin-MLL FL inh | / | /
ClpP mod | -2.1% | /
gsp ag | -44%[inhibitor] | 3%
gsp antag | 10% | -2%
TRPML1 inh | -14 | -17

(more compounds)
[49] O=S(=O)(Nc1ccc(-c2ccc(N3CCCC3)nn2)cc1)c1ccc(Br)cc1
[50] COc1ccccc1C(=O)NCC(=O)N/N=C/c1cc(Br)ccc1OC(=O)/C=C\c1ccco1
[51] CC1=CC(=NOC(=O)c2cccc([N+](=O)[O-])c2)C=C(C)C1=O
[52] Cc1cc(NC(=O)c2ccco2)ccc1-n1cnnn1
[53] CC(=O)NS(=O)(=O)c1ccc2c(c1)Cc1cc(S(=O)(=O)NC(C)=O)ccc1-2
[54] CCOc1cc(Br)cc(C(c2c(C(=O)O)[nH]c3ccccc23)c2c(C(=O)O)[nH]c3ccccc23)c1O
assay / entry | 49 | 50 | 51 | 52 | 53 | 54
TRPML1 ag | -0.5 | 0.8 | -1.4 | -1.0 | -0.3 | 1.2
Menin-MLL FL inh | / | 21 | 3.2 | -0.4 | -2.5 | -1.8
ClpP mod | -7.8% | -2.5% | -1.7% | -6.0% | -5.7% | 0.1%
gsp ag | / | 0% | -11% | 27% | 1% | 7%
gsp antag | / | -18% | -8% | 10% | 9% | 7%
TRPML1 inh | -2 | 9 | -18 | 16 | -2 | 10

Source: PubChem (National Center for Advancing Translational Sciences (NCATS))
